High-throughput results deposited in PubChem by National Center for Advancing Translational Sciences (NCATS).
2A StopGo: High Throughput Screening for Foot and Mouth Disease Virus Antivirals | Potency, µM (doses to about 57.9 µM), inactives show at the top dose signal change, negative = less light | human cells with a luciferase reporter of 2A StopGo recoding; control for the full effect not named in the record | AID 1159524, 2015 | actives 1.2% (n = 410,000); active = well fitted falling curve with a large enough effect; inconclusive = small, poorly fitted or top-dose-only effect; inactive = no such curve, though single readings can be large or run the other way; tested in HEK293T cells; note: % is set by controls: 0 for no effect and ±100 for the full control effect; nearly all actives have a fitted effect of over 45% in size; luciferase light after 4 h
RE007 growth inh: qHTS Assay for Inhibitors of the HIV-1 protein Vpr. S. pombe RE007 Vpr strain, BacTiter-Glo ATP luminescence, 24 h; control for the full effect not named in the record. Potency, µM (series often up to 92.2 µM), inactives show top-dose activity change, negative = less growth. actives 0.21% (n = 360,000); active = well fitted falling curve with a large enough effect; inconclusive = small, poorly fitted or top-dose-only effect; inactive = no such curve, though single readings can be large or run the other way;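 note: % is set by controls: 0 for no effect and ±100 for the full control effect; nearly all actives have a fitted effect of over 50% in size; the assay follows cell death caused by Vpr and the record does not say whether a fall means rescue or toxicity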
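Fission yeast strain RE007, carrying one chromosomally integrated HIV-1 vpr copy, was seeded at OD 0.01 in PMG+AL medium with 23 nL pinned compound. After 24 h at 30 °C and 99% humidity, viability was read by BacTiter-Glo luminescence.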
NS1 inh: qHTS Assay for Inhibitors of Influenza NS1 Protein Function. actives 0.4% (n = 270,000). Potency, µM (top dose mostly 46.1 µM), without a hit: top-dose activity, positive = more growth. S. cerevisiae slowed by influenza A NS1, growth recovery by OD600. AID 2326, 2010; active means well fitted rising curve with a large enough effect; inconclusive means small, poorly fitted or top-dose-only effect; inactive means no such curve, though single readings can be large or run the other way; note: nearly all actives have a fitted effect of over 50% in size
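Read-out: OD600 growth recovery of NS1-expressing budding yeast. Cells grown overnight at 30C in -URA glucose medium, washed, resuspended and diluted 1:100 in 2% galactose assay medium, pH 6.0. Same strain lacking NS1 served as positive control.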
MARV entry inh: qHTS for inhibitors of binding or entry into cells for Marburg Virus | Marburg virus pseudotyped entry inhibition, cell reporter; control for the full effect not named in the record; about a third of the inactives were read at about 46 µM | Potency, µM (titrated, usually from 37.8 µM), inactives show top-dose activity change, negative = inhibition, actives largely listed as inhibitors | actives 1.8% (n = 300,000) | AID 540276, 2011; active = well fitted inhibition curve with a large enough effect; inconclusive = small, poorly fitted or top-dose-only effect, or effect the other way; inactive = flat fitted curve, though single readings scatter; tested in HEK293 cells; about a fifth of its hits are not listed in these tables; note: % is set by controls: 0 for no effect and ±100 for the full control effect; luciferase read-out
Cruzain inh Det: qHTS Assay for Promiscuous and Specific Inhibitors of Cruzain (with detergent); Cruzipain (Trypanosoma cruzi), P25779; purified cruzain, Z-FR-AMC fluorescence, 0.01% Triton; Potency, µM, inactives show max response, negative = inhibition, usual class: inhibitors; actives 0.43% (n = 200,000);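 note: plate controls were neutral wells for no effect and buffer without enzyme for full effect; nearly all actives have a fitted effect of over 40% in size; top concentration of the series not given in the record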
Target sequence (P25779 123-467 limits assumed): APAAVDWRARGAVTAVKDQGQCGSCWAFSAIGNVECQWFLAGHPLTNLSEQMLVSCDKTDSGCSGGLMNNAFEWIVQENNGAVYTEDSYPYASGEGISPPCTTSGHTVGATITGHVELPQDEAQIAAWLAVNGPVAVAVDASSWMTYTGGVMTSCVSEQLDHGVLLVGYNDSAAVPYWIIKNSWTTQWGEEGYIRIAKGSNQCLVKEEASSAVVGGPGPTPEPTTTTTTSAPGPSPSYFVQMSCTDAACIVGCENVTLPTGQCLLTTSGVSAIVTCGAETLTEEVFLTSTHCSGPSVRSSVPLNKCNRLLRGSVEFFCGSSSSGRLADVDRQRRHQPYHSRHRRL
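Cysteine protease activity tested under reducing, mildly acidic conditions (100 mM sodium acetate pH 5.5, 5 mM DTT) plus 0.01% Triton X-100. Cruzain 1.5 nM; substrate Z-FR-AMC 2 uM; 15 min compound preincubation at room temperature.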
Cruzain inh noDet: qHTS Assay for Promiscuous and Specific Inhibitors of Cruzain (without detergent); Cruzipain (Trypanosoma cruzi), P25779; purified cruzain, Z-FR-AMC fluorescence, no detergent; Potency, µM, inactives show max response, negative = inhibition, usual class: inhibitors; actives 2.3% (n = 200,000);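 note: plate controls were enzyme without inhibitor for no effect and buffer without enzyme for full effect; nearly all actives have a fitted effect of over 40% in size; top concentration of the series not given in the record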
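Purified cruzain at 1.5 nM, pre-incubated 15 min with compound at room temperature in 100 mM sodium acetate pH 5.5, 5 mM DTT, 0.00005% Triton X-100. Reaction started with 2 uM Z-FR-AMC; AMC fluorescence increase over 60 s gives rate.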
LASV entry inh: qHTS for Inhibitors of binding or entry into cells for Lassa Virus | Lassa virus pseudotype entry inhibition, cell reporter; control for the full effect not named in the record | Potency, µM (series often up to 37.9 µM), inactives show top-dose activity change, negative = inhibition, actives largely listed as inhibitors | actives 1.2% (n = 300,000) | AID 540256, 2011; active means well fitted inhibition curve with a large enough effect; inconclusive means small, poorly fitted or top-dose-only effect, or effect the other way; inactive means flat fitted curve, though single readings scatter; tested in HEK293 cells; note: % is set by controls: 0 for no effect and ±100 for the full control effect; nearly all actives have a fitted effect of over 50% in size; luciferase read-out
SARS PLP yeast: qHTS of Yeast-based Assay for SARS-CoV PLP; actives 0.19% (n = 330,000); Potency, µM (series often up to 32.9 µM), inactives show at the top dose activity, positive = growth rescue; S. cerevisiae expressing SARS-CoV PLpro, growth rescue; control for the full effect not named in the record; AID 485353, 2010; active means well fitted rising curve with a large enough effect; inconclusive means small, poorly fitted or top-dose-only effect; inactive means no such curve, though single readings can be large or run the other way; note: 0% is about no effect; nearly all actives have a fitted effect of over 55% in size; growth read by luminescence after 48 h
* = called active by the depositor; & = joins results of further samples; [ ] = dose if it differs, or a comment. Unless noted, calls come from the whole dose curve; as a rule, active = well fitted curve in the direction sought with a large enough effect; inconclusive = small, poorly fitted or top-dose-only effect, or another doubt; inactive = no such curve, though single readings can be large; an effect the other way counts as inactive or inconclusive. Potency is the fitted concentration of half-maximal effect. Not a hit list. Share with any hit: about 4.7%.

O=C(NCc1ccc(Cl)cc1)C1CCN(S(=O)(=O)c2ccc(F)cc2)CC1 was read as 2A StopGo -14.9%&0.0%, RE007 growth inh 19.0%, NS1 inh -7.1%, MARV entry inh inconclusive, Cruzain inh Det -2.0%, Cruzain inh noDet -5.6%, LASV entry inh inconclusive and SARS PLP yeast 0.1%.
For CCCCCc1cc(=O)oc2c(C(CCN3CCCC(C)C3)c3ccc4c(c3)OCO4)c(OC)cc(OC)c12 (stereo not given) the results were 2A StopGo 27.1%, RE007 growth inh -0.3%, NS1 inh 0.0% and SARS PLP yeast 0.9%.
`O=C(c1cc(COc2ccc(F)cc2Cl)on1)N1CCCCCC1` gave 2A StopGo 42.1%[activator], RE007 growth inh -11.8%, NS1 inh -36.0% and SARS PLP yeast inconclusive.
Screening CCOCCCn1c(=N)c(C(=O)NCc2cccnc2)cc2c(=O)n3cc(C)ccc3nc21 returned 2A StopGo -14.2%, MARV entry inh 5.2%[46.1 µM], Cruzain inh Det -5.5%, Cruzain inh noDet 1.3% and LASV entry inh -3.3%[46.1 µM].
Cc1ccc(-c2csc3nc(C)n(-n4c(C)ccc4C)c(=O)c23)o1 was read as 2A StopGo -12.4%, RE007 growth inh 0.6%, NS1 inh -6.0%, MARV entry inh inconclusive, Cruzain inh Det 1.8%, Cruzain inh noDet -6.4%, LASV entry inh -14.6% and SARS PLP yeast -7.8%.
`O=C(Cc1ccc(F)cc1)c1ccc(O)cc1O` gave 2A StopGo -28.2%, RE007 growth inh -17.2%, NS1 inh -33.6%, MARV entry inh 0.3%, Cruzain inh Det -6.1%, Cruzain inh noDet 1.5%, LASV entry inh 1.7% and SARS PLP yeast -11.7%.
Screening CN(C)C(/C=C/Nc1ccc(O)cc1)=C(C#N)C#N returned 2A StopGo -5.5%, RE007 growth inh 7.6%, MARV entry inh -27.7%[14.2 µM], LASV entry inh 9.9% and SARS PLP yeast 1.8%.
`Cn1nc(-c2ccccc2F)c2cc(C(=O)NCCc3ccc(Cl)cc3)sc21` gave 2A StopGo -7.1%, MARV entry inh 21.9%[46.1 µM], Cruzain inh Det -0.8%, Cruzain inh noDet inconclusive and LASV entry inh inconclusive.
O=C(CCN1C(=O)C2C3CCC(C3)C2C1=O)Nc1cccc(Cl)c1 (stereo not given) was read as 2A StopGo 1.6%, RE007 growth inh -0.1%, NS1 inh -12.4%, MARV entry inh -6.2%, LASV entry inh 3.8% and SARS PLP yeast 3.1%.
CCOCc1cnc(C)nc1NCC(=O)c1c(C)n(C)c2ccc(OC)cc12 was read as 2A StopGo -12.9%, NS1 inh -4.8%, MARV entry inh inconclusive, Cruzain inh Det -1.3%, Cruzain inh noDet 1.9%, LASV entry inh 15.6% and SARS PLP yeast -4.1%.
CCn1c2ccc(/C(C)=N\O)cc2c2cc(/C(C)=N\O)ccc21 was read as 2A StopGo -13.6%, RE007 growth inh -3.2%, NS1 inh 2.8%, MARV entry inh -29.2%, Cruzain inh Det -6.7%, Cruzain inh noDet 0.9%, LASV entry inh 0.3% and SARS PLP yeast 0.6%.
CC(C)c1cc(NCCOCCO)n2c(nc3ccccc32)c1C#N was read as 2A StopGo -12.9%, RE007 growth inh 2.5%, NS1 inh -2.8% and SARS PLP yeast -0.5%.
For COC(=O)/C(=C1/Oc2ccc(C)cc2S1)C(F)(F)F the results were 2A StopGo 64.2%[activator], RE007 growth inh -8.0%, NS1 inh 1.2%, MARV entry inh 9.1%, Cruzain inh Det -4.4%, Cruzain inh noDet -5.6%, LASV entry inh 19.2% and SARS PLP yeast 2.4%.
For CN1CCN(c2oc(Cc3cccc4ccccc34)nc2C#N)CC1 the results were 2A StopGo -14.5%, RE007 growth inh 0.0%, NS1 inh 2.1%, MARV entry inh 25.5%[14.2 µM], LASV entry inh 15.8% and SARS PLP yeast -0.2%.
`COc1ccc(NS(=O)(=O)c2ccc(C)c(C(=O)NCC(c3ccco3)N(C)C)c2)cc1` (stereo not given) gave 2A StopGo -2.3%, RE007 growth inh 2.0%, MARV entry inh 1.7%, LASV entry inh -1.0% and SARS PLP yeast 1.9%.
For O=c1c2cccnc2[nH]c(=S)n1CCCN1CCN(c2ccc(F)cc2)CC1 the results were 2A StopGo -18.5%, RE007 growth inh 6.1%, NS1 inh -8.1%, MARV entry inh 4.61µM*, Cruzain inh Det 0.7%, Cruzain inh noDet -1.7%, LASV entry inh 5.8µM* and SARS PLP yeast 7.7%.
CCN(CC(=O)NC(C)(C)C)C(=O)C(c1ccccc1)c1ccccc1 was read as 2A StopGo -10.9%, RE007 growth inh 27.3%, MARV entry inh -14.0%[46.1 µM], LASV entry inh 9.9% and SARS PLP yeast 0.3%.
Cc1ccc(C)c(OCc2cc(C(=O)N3CCC(N4CCCC(O)C4)CC3)no2)c1 (stereo not given) was read as 2A StopGo -0.5%, RE007 growth inh -3.6%, NS1 inh 0.1%, MARV entry inh inconclusive, LASV entry inh -13.6%[46.1 µM] and SARS PLP yeast 1.3%.
`CC(C)C(CCNC(=O)CN1C(=O)c2ccccc2C1=O)c1ccco1` (stereo not given) gave 2A StopGo -8.2%, RE007 growth inh 8.6%, NS1 inh 1.3%, MARV entry inh 2.2%, Cruzain inh Det -2.5%, Cruzain inh noDet -5.5% and LASV entry inh -11.4%.
Screening CCC1CCCCN1CCCNC(=O)c1ccc(CS(=O)(=O)Cc2ccc(Cl)cc2)o1 (stereo not given) returned 2A StopGo -20.2%, RE007 growth inh -6.2%, NS1 inh -2.0% and SARS PLP yeast -2.1%.
Screening O=C(CSc1nc2c([nH]c3ccccc32)c(=O)n1-c1ccc(F)cc1)NCC1CCCO1 (stereo not given) returned 2A StopGo -6.0%, Cruzain inh Det -1.3%, Cruzain inh noDet -2.6% and LASV entry inh inconclusive.
CCCN(CC#CCOc1ccc(OC)cc1)CCC was read as 2A StopGo -17.4%, RE007 growth inh 2.7%, NS1 inh -6.9%, MARV entry inh -7.5%, Cruzain inh Det 1.2%, Cruzain inh noDet 1.3%, LASV entry inh 0.9% and SARS PLP yeast 0.2%.
`CCN(CC)Cc1c(C(=O)N2CCc3ccccc3C2)nc2ccc(Cl)cn12` gave 2A StopGo 4.1%, RE007 growth inh -17.3%, NS1 inh -0.3%, MARV entry inh 8.8%[46.1 µM], LASV entry inh 12.4% and SARS PLP yeast 0.3%.
Cc1cc(C)c(NC(=O)c2ccc3nc(C(C)C)oc3c2)c(C)c1 was read as 2A StopGo -9.1%, Cruzain inh Det -2.1%, Cruzain inh noDet 8.1% and LASV entry inh -11.6%[46.1 µM].
For Cc1ccc[n+](C(C(=S)NCc2ccco2)=C([O-])c2ccccc2Cl)c1 the results were 2A StopGo 0.9%, RE007 growth inh 12.2%, MARV entry inh inconclusive and LASV entry inh inconclusive.
Cc1ccc(NC(=O)CO/N=C(\N)c2ccccc2)cc1C was read as 2A StopGo -4.4%, RE007 growth inh -18.7%, MARV entry inh inconclusive, LASV entry inh inconclusive and SARS PLP yeast -29.3%.
Screening CCO/N=C/c1ccc(OC)c(Oc2nc(OC)cc(OC)n2)c1 returned 2A StopGo 6.0%, RE007 growth inh -7.9%, MARV entry inh -5.7%[46.1 µM], LASV entry inh -29.3% and SARS PLP yeast -9.3%.
CC(=O)OC1CCC2(C)C(CCC3C2CC(=O)C2(C)C3CC(N3CC3)C2C(C)=O)C1 (stereo not given) was read as 2A StopGo inconclusive, RE007 growth inh 16.9%, MARV entry inh inconclusive and LASV entry inh -9.8%.
Screening CN(C)C(=O)c1nc2ccccc2s1 returned 2A StopGo 31.1%[activator], RE007 growth inh 9.1%, NS1 inh -3.1%, MARV entry inh inconclusive, Cruzain inh Det -0.9%, Cruzain inh noDet -0.3%, LASV entry inh inconclusive and SARS PLP yeast -5.3%.
Cc1ncsc1C(=O)N1CCCC(CNS(=O)(=O)c2cccs2)C1 (stereo not given) was read as 2A StopGo -19.6%, RE007 growth inh 1.4%, NS1 inh 2.1% and SARS PLP yeast 0.3%.
For CC1CCCN(c2ccc3nc4ccccc4c(=O)n3n2)C1 (stereo not given) the results were 2A StopGo -83.8%, RE007 growth inh -29.3%, MARV entry inh inconclusive and SARS PLP yeast -9.6%.
Cc1noc(C)c1COc1ccc(C(=O)NNC(=O)c2ccccc2O)cc1 was read as 2A StopGo 14.0%, RE007 growth inh -7.9%, MARV entry inh inconclusive, LASV entry inh -22.8% and SARS PLP yeast -2.5%.
`O=C(CN(C(=O)Cn1nnc(-c2ccc(F)cc2)n1)C1CCCC1)NC1CCCC1` gave 2A StopGo 13.6%, RE007 growth inh -15.2%, NS1 inh inconclusive, MARV entry inh 9.4%, Cruzain inh Det 8.3%, Cruzain inh noDet -22.4%, LASV entry inh -24.8% and SARS PLP yeast -0.8%.
`COc1ccc(OC)c(CNn2c(-c3cccc(C)c3)nc3ccccc3c2=O)c1` gave RE007 growth inh 0.0%, NS1 inh -8.0%, MARV entry inh inconclusive, Cruzain inh Det -1.0%, Cruzain inh noDet 0.7%, LASV entry inh -1.3% and SARS PLP yeast -18.4%.
`N#CCCN(Cc1cccnc1)C(=S)NC1CC2C=CC1C2` (stereo not given) gave 2A StopGo 14.6%, RE007 growth inh 10.3%, NS1 inh -0.8%, MARV entry inh -20.4%[46.1 µM], LASV entry inh -4.0% and SARS PLP yeast 1.4%.
`CCOC(=O)c1cnc(SCC(=O)Nc2ccc3c(c2)OCCO3)nc1N` gave 2A StopGo -27.0%, RE007 growth inh -1.9%, NS1 inh -19.2%, MARV entry inh -17.5%, Cruzain inh Det -0.1%, Cruzain inh noDet -9.9%, LASV entry inh 1.6% and SARS PLP yeast 3.9%.
Screening Cn1c(CNC(=O)c2ccco2)nnc1SCC(=O)c1ccc(Br)cc1 returned 2A StopGo -1.4%, RE007 growth inh -14.7%, NS1 inh 4.0%, MARV entry inh -11.7%[46.1 µM], LASV entry inh inconclusive and SARS PLP yeast 0.8%.
